gsp antag: antagonizes gsp, the McCune-Albright syndrome mutation; gsp-mutant cells, cAMP HTRF, 30 min; control for the full effect not named in the record; Potency, µM (highest dose often 76.9 µM), without a hit: top-dose activity change, negative = inhibition, hits mostly inhibitors; 340,000 tested, 0.4% active; active = falling curve of any shape with a large fitted effect; inconclusive = falling curve, mostly with a smaller effect; inactive = flat or rising curve; cell line not stated here;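 also: intracellular cAMP measured with PDE inhibitor Ro 20-1724 present during compound exposure; potency is read from the fitted curve at half-maximal effect; % is scaled to controls: 0 for no effect and ±100 for the full control effect; nearly all actives have a fitted effect of over 65% in size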
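Cells, 2000/well, grown 16–24 h in DMEM 10% FBS with 0.5 mg/ml G418, then compounds plus […] (300 uM addition stock), 30 min at 37C. cAMP read by HTRF (cAMP-d2 and anti-cAMP antibody-K in lysis buffer) after 30 min RT.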
TRPV1 potentiator: human TRPV1 potentiation | 320,000 tested, 0.02% active | potentiation, % at 8.33 µM | Q8NER1 | AID 540277 | TRPV1-expressing cells, Fluo-8 calcium influx, capsaicin EC20 potentiation; host cell line not named in the record; control for the full effect not named in the record; active means potentiation above 80%; inconclusive means 30% to 80%; inactive means below 30%; also: 0% is about no effect
Target sequence (Q8NER1 whole entry, looked up): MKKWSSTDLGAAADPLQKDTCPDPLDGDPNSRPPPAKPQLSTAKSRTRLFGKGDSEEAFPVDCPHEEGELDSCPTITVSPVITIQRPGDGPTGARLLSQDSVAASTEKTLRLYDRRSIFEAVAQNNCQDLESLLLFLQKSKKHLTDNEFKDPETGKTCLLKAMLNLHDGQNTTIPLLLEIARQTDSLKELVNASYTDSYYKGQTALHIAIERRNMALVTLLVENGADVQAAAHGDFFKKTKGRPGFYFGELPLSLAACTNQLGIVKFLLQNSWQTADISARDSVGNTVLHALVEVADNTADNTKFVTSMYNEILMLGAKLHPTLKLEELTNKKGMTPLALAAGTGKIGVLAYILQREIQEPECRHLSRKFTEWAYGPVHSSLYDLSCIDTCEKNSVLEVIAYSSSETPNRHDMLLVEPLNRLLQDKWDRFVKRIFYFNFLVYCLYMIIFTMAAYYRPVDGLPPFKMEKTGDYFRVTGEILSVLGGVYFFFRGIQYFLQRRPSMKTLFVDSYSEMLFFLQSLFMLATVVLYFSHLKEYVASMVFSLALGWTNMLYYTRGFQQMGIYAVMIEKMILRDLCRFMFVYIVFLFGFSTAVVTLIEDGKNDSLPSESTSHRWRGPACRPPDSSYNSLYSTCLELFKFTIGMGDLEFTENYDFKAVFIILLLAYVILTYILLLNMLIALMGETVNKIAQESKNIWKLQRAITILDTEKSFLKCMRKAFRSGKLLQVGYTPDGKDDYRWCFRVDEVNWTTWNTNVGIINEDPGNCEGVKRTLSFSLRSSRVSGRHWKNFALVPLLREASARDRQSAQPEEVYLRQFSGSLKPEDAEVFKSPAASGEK
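Fluo-8 calcium influx in TRPV1-expressing cells, kinetic read (ex 480/em 520 nm). Compound added and read 3 min for agonist activity, followed by capsaicin at EC20 final and 2 min further read for enhancement.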
TRPML1 inh: blocks the human TRPML1 channel | Q9GZU1 | TRPML1-inducible cells, Ca2+ dye fluorescence, FDSS; stronger effect = lower value; inhibition of EC80 agonist-evoked calcium signal | activity change, negative = inhibition, % (concentration not given with the values) | 390,000 tested, 0.02% active | AID 624415; in the data active means activity change below about -50%; inconclusive means about -30% to -50%; inactive means above about -30%;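 also: stimulus is agonist 54-4 at its EC80 concentration; % is scaled to controls: 0 for no effect and ±100 for the full control effect; compound concentration not given in the record; the text of the record puts the active cut at -80%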
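TRPML1-DL cells, Tet-induced overnight (~16 h, 37 °C) at 1,500 cells/well, were loaded with Ca8 no-wash dye plus quencher for 45-90 min at room temperature. Compounds were pinned during FDSS kinetic reading; agonist 54-4 at EC80 (4 uM final) then added.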
Sfp PPTase inh: blocks B. subtilis Sfp PPTase activity. Q9F4F7. Biochemical Sfp PPTase activity, qHTS. Potency, µM, for the others: max response, negative = inhibition, hits mostly inhibitors. 310,000 tested, 3.5% active; active = well fitted inhibition curve with a large enough effect; inconclusive = small, poorly fitted or top-dose-only effect, or another doubt; inactive = no such curve, though single readings can be large or run the other way;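 also: the enzyme is Sfp with the accession as filed and its product quenches rhodamine fluorescence; potency is read from the fitted curve at half-maximal effect; 0% = enzyme reaction without inhibitor and -100% = no enzyme wells; top concentration of the series not given in the record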
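Step 1, compound plus 15 nM Sfp-PPTase, 15 min, room temperature. Step 2, add rhodamine-CoA (5 uM) and BHQ-2-YbbR (12.5 uM). Step 3, read 525/598 nm fluorescence at 0 and 30 min.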
Menin-MLL FL inh: displaces fluorescein MLL peptide from human menin; AID 1766; Fluorescence polarization, fluorescein-MLL peptide displacement from menin; FP activity change, % at 61.4 µM; 290,000 tested, under 10 active; inconclusive = falling polarisation curve, or a change in total fluorescence; inactive = total fluorescence flat and polarisation flat or rising; no compound was filed as active; the % refers to the polarisation; negative = inhibition;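 also: % of control where 0% means no effect; inhibitors lower the polarisation; unlabelled MLL peptide was the positive control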
ClpP mod: qHTS Assay for Activators of ClpP; ATP-dependent Clp protease proteolytic subunit (Bacillus subtilis (strain 168)), P80244; purified B. subtilis ClpP, FRET peptide cleavage, 20 min; Potency, µM (titrated, usually from 57.5 µM), for inactives: at the highest dose activity change, negative = active; 340,000 tested, 1.9% active; active = well fitted falling curve with a large enough effect; inconclusive = small, poorly fitted or top-dose-only effect; inactive = no such curve, though single readings can be large or run the other way; also: potency is read from the fitted curve at half-maximal effect; the source files actives as falling curves though it sought activators and does not explain the sign; nearly all actives have a fitted effect of over 65% in size; many hits overshoot -100%
Target sequence (P80244 whole entry, looked up): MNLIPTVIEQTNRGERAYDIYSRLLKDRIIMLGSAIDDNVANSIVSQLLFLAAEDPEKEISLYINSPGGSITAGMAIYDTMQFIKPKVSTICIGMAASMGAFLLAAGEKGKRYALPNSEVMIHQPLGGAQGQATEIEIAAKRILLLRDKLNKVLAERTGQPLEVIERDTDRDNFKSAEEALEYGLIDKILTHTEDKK
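Buffer: 100 mM Tris/HCl pH8, 100 mM KCl, 0.05% low protease BSA, 2.5% glycerol, 0.01% Tween-20. ClpP 10 microg/mL final; 20 min RT; delta FRET normalized to ADEP and DMSO controls.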
gsp ag: agonists of gsp mutant (McCune-Albright syndrome); gsp mutant cells, cAMP HTRF, 30 min; control for the full effect not named in the record; Potency, µM (doses to about 76.9 µM), without a hit: top-dose activation (cAMP increase), most hits filed as activators; 340,000 tested, 0.13% active; active = well fitted activation curve with a large enough effect; inconclusive = small, poorly fitted or top-dose-only effect, or another doubt; inactive = no such curve, though single readings can be large or run the other way; cell line not stated here;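 also: phosphodiesterase inhibitor Ro 20-1724 added with compounds to block cAMP breakdown; potency is read from the fitted curve at half-maximal effect; nearly all actives have a fitted effect of over 60% in size; about a fifth of the inactives were tested at one dose only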
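Cells stably selected in G418 were plated at 2000/well, grown 16-24 hr, then given compounds in DMSO with the PDE inhibitor […] (300 uM solution added) for 30 min at 37C; cAMP was read by HTRF.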
Numbers without * were called inactive; ? = inconclusive; nt = no result given; & = joins results of further samples; [ ] = remark or other dose.

Screens in order – gsp ag	gsp antag	TRPV1 potentiator	ClpP mod	Menin-MLL FL inh	TRPML1 inh	Sfp PPTase inh
- O=C(NNC(=O)C1CC=CCC1)c1ccccc1O (stereo not given)
→ -91%[inhibitor]	10%	13	nt	1.7	7	7%
- Cc1ccccc1C(=O)c1ccc2c(c1)n(C)c(=O)n2C
→ -1%	15%	5	0.9%	-0.4	9	-4%
- CCOc1cc(CNn2cnnc2)cc(Cl)c1OCC(=O)NC(C)(C)C
→ 3%	3%	-3	nt	-0.4	6	13%
- O=C(NCC(=O)N1CC=C(c2ccccc2)CC1)c1ccc(OC(F)F)cc1
→ 4%	-3%	nt	-5.7%	nt	-1	nt
- CS(=O)(=O)ON=C1CCN(S(=O)(=O)c2ccccc2)CC1
→ 1%	9%	-2	nt	-0.9	9	8%
- Cc1cc(S(=O)(=O)NC2CC(C)(C)NC(C)(C)C2)c(Cl)cc1Cl
→ -16%[15.4 µM]	18%	14	1.5%	1.0	5	13%
- CC(=O)Cc1nsc(NC(=O)c2c(-c3ccccc3Cl)noc2C)n1
→ -21%	-14%	-4	-0.7%	2.1	-16	13%
- COc1cccc(C(=O)Nc2ccc(NC(C)=O)cc2)c1
→ 1%	12%	4	0.0%	1.5	-6	15%
- C[C@H]1CN([C@@H](C)CO)S(=O)(=O)c2ccc(Br)cc2O[C@@H]1CN(C)C(=O)c1cccnc1
→ 2%	nt	nt	1.7%	nt	?	nt
- Cc1nn(-c2ccc(F)cc2)c(Cl)c1/C=C/C(=O)OCC(=O)Nc1ccc(F)cc1F
→ 29%	-13%	0	6.0%	0.7	-3	16%
- CC(C)c1ccc(NC2CCCN(C(=O)CCn3cnnn3)C2)cc1 (stereo not given)
→ -60%[inhibitor]	3%	3	-2.2%	nt	-8	14%
- Cc1ccc(NC(=O)C2CCCN(S(=O)(=O)c3cccc4cccnc34)C2)cc1 (stereo not given)
→ 2%	-12%	11	-0.1%&-0.9%	nt	-6&7	4%
- O=C(CN1C(=O)S/C(=C\c2ccc(F)cc2)C1=O)NC1C=CS(=O)(=O)C1 (stereo not given)
→ 27%	7%	0	-3.6%	nt	-8	-1%
- Cc1ccc(NC(=O)COc2cccnc2[N+](=O)[O-])cc1S(=O)(=O)N1CCCCC1
→ 5%	3%	29	0.7%	3.6	28	-4%
- COc1cccc(NC(=O)CN(C)C(=O)/C=C/c2ccc(S(=O)(=O)N3CCCCCC3)cc2)c1
→ -85%	nt	nt	-2.4%	nt	14	nt

(listing goes on)
Screens in order – gsp ag	gsp antag	TRPV1 potentiator	ClpP mod	Menin-MLL FL inh	TRPML1 inh	Sfp PPTase inh
- Cc1c(Cl)cccc1NS(=O)(=O)c1cn(C)c(=O)n(C)c1=O
→ 24%	1%	20	1.3%	-5.7	3	16%
- COc1cccc(C(c2nnnn2Cc2ccccc2)N2CCN(C(=O)c3ccco3)CC2)c1OC (stereo not given)
→ -25%	-4%[15.4 µM]	-22	-1.0%	6.0	4	-11%
- COc1ccc(CCNC(=O)COc2ccc3c(C)cc(=O)oc3c2)cc1OC
→ -1%[15.4 µM]	-9%	-5	-0.6%	7.4	-6	16%
- Cc1ccc(/C=N/n2c(-c3cccnc3)n[nH]c2=S)o1
→ 4%	-21%	-6	nt	5.5	3	56µM*
- COc1ccc([N+](=O)[O-])cc1NC(=S)NC(C)=O
→ 23%	-11%	-7	4.0%	0.6	-9	14%
- COc1cc(/C=N/NC(=O)c2cc3c(ccc4ccccc43)o2)cc(OC)c1O
→ nt	nt	-10	nt	-2.1	nt	2%
- Cc1nc(CCN2C(=O)c3ccccc3C2=O)n[nH]1
→ -48%	-7%	9	-0.1%	4.3	4	-4%
- COc1ccc(NC(=O)C2C(c3ccccc3)C2(Cl)Cl)cc1 (stereo not given)
→ -16%	-14%	nt	1.0%	0.4	9	8%
- COc1ccc(O)c(C(=O)CC(=O)c2cccnc2)c1
→ 18%	-3%	nt	nt	nt	-4	nt
- O=C(NCC(c1cccs1)N1CCOCC1)c1cc(-c2ccccn2)nc2ccccc12 (stereo not given)
→ ?	-2%	2	-5.2%	2.4	nt	1%
- Cc1ccnc(NC(=O)CN(C)S(=O)(=O)c2cccc3nsnc23)c1
→ 0%	0%	-2	0.5%	0.3	19	23%
- C=CCn1c2ccccc2c2nnc(SCCN3CCCCC3)nc21
→ 24%	-1%	-9	-0.3%	6.8	nt	-6%
- COc1ccc(/C=C/C(=O)NCCCc2ccccc2)cc1OC
→ ?	0%	-18	?	1.2	17	2%
- CNC(=O)CN1C(=O)COc2ccc(S(=O)(=O)N3CCCCCC3)cc21
→ 33%	8%	-22	2.2%&1.8%	nt	6&38	14%
- C/C(=N\NC(=O)CNc1cccc(Cl)c1C)c1cccs1
→ ?	4%	-11	nt	-3.4	4	11%

Other structures.
Screens in order – gsp ag	gsp antag	TRPV1 potentiator	ClpP mod	Menin-MLL FL inh	TRPML1 inh	Sfp PPTase inh
- CN1C(CC(=O)c2ccccc2)CCCC1CC(O)c1ccccc1 (stereo not given)
→ nt	5%	19&-2	-3.7%	nt	-10	7%&21%
- COc1ccc(C(C)=O)c(OC(=O)c2ccco2)c1
→ -21%	-11%	-14	-0.2%	3.9	-2	-28%
- CN1CCN(c2ccc(CNS(=O)(=O)Cc3cccc(C(F)(F)F)c3)cc2)CC1
→ -27%	0%	1	0.4%	1.4	5	12%
- CC1CCCCN1C(=S)Nc1ccc2nc3n(c(=O)c2c1)CCCCC3 (stereo not given)
→ 0%	13%	-4	28µM*	7.8	-16	4%
- Cn1c(=O)c2c([nH]c(=S)n2CCCc2ccccc2)n(C)c1=O
→ 2%	-3%	?	nt	-4.9	8	50µM*
- O=S(=O)(NCCc1ccccc1)c1ccc(-n2cnnn2)cc1
→ ?	5%	17	nt	3.3	17	16%
- CCc1cc(C(=O)N2CCCC(C(=O)c3ccc(Oc4ccccc4)cc3)C2)n(C)n1 (stereo not given)
→ -8%	-25%	-3	nt	-1.9	-14	2%
- O=C(NCCC(=O)N1CCNC1=O)OCc1ccccc1
→ -29%	6%	4	-1.1%	0.3	13	50µM*
- C=C1CCN([C@@H](CC(C)C)C(=O)NCCCc2ccccc2)S(=O)(=O)c2ccccc21
→ 14%	-7%	nt	-0.7%	nt	-6	nt
- Cc1nn(-c2ccccc2)c2nc(-c3cccs3)cc(C(=O)NN)c12
→ -10%	-2%	10	-15%	0.8	8	14%
- NC(=O)CC(NC(=O)Cc1ccc(Cl)cc1)c1ccc(NCCCN2CCCC2=O)c([N+](=O)[O-])c1 (stereo not given)
→ nt	4%	12	1.0%	-0.6	10	16%
- O=C(COC(=O)c1cc(S(=O)(=O)N2CCOCC2)ccc1Cl)NCCc1ccccc1
→ 14%	-13%	-4	0.4%	nt	4	nt
- Cc1ccc2c(c1)C1(C=CC(=O)C=C1)CC(=O)N2C
→ nt	nt	nt	nt	0.6	-17	-8%
- Cc1cc(OCC(=O)NCC(c2ccc(F)cc2)N2CCOCC2)ccc1Cl (stereo not given)
→ 8%	4%	1	0.5%	nt	-5	nt
- COc1ccc(-c2cnn(-c3ccccc3)c2N)cc1OC
→ -23%	-9%	-5	-1.3%	2.1	10	2%

Additional compounds follow.
Screens in order – gsp ag	gsp antag	TRPV1 potentiator	ClpP mod	Menin-MLL FL inh	TRPML1 inh	Sfp PPTase inh
- CCOC(=O)C1=C(C)NC(=O)NC1c1ccc(Br)o1 (stereo not given)
→ -16%[15.4 µM]	0%	-1	1.5%	2.3	-15	-15%
- COc1ccc(CCNC(=O)COC(=O)c2ccc(C)s2)cc1OC
→ 24%	11%	0	1.8%	nt	-10	nt
- CCCCCn1c(=S)[nH]c2cc(C(=O)N3CCN(C(=O)OCC)CC3)ccc2c1=O
→ 29%[15.4 µM]	?	3	nt	3.8	-6	9%
- Cc1cc(NC(=O)CSc2ncnc3sc(C)c(C)c23)no1
→ 13%[15.4 µM]	7%	-21	0.1%	-1.2	7	7%
- O=C(NCCC1=CCCCC1)C1CCC(CNc2nc(=S)[nH]c3ccccc23)CC1 (stereo not given)
→ 7%[15.4 µM]	-14%	19	nt	1.0	-12	-1%
- C#CCOCCOCCOCCNc1nc(N2CCN(C(=O)[C@H](CCC(=O)O)n3cc([C@@H](N)CCCCN)nn3)CC2)nc(N2CCN(C(=O)[C@H](CCC(=O)O)n3cc([C@@H](N)CCCCN)nn3)CC2)n1
→ nt	5%	nt	-0.4%	nt	8	nt
- CC(C)=C1SC(N2CCCCC2)=NC1=O
→ 0%	-9%	1	0.8%	4.6	-4	17%
- Cc1cccc(C(=O)NCCCNC(=O)c2ccc(C)nc2)c1
→ 24%	9%	-1	nt	-0.5	-5	12%
- CCOC(=O)C1CCN(C2=NC(=O)/C(=C/c3ccccc3OC)S2)CC1
→ 10%	-15%	-22	-2.6%	-13	-13	0%
- COc1ccc(N(CC(=O)NCCC2=CCCCC2)S(C)(=O)=O)cc1
→ -6%	0%	9	-0.4%	0.3	10	-3%
- O=C(Cc1ccccc1)NCCc1cnc[nH]1
→ 0%	6%	-5	nt	0.5	-18	12%
- CCOc1ncccc1C(=O)Nc1ccc(S(=O)(=O)NC2=NCCCCC2)cc1
→ 23%[15.4 µM]	16%	-5	nt	1.8	21	2%
- COc1ccc(CN2CCN(C3CCC3)CC2CCO)c(C)c1C (stereo not given)
→ 1%[15.4 µM]	-12%	?	-0.5%	-5.5	-11	22%

Reformatted as tab-separated lines: part of the list above.
smiles	gsp ag	gsp antag	TRPV1 potentiator	ClpP mod	Menin-MLL FL inh	TRPML1 inh	Sfp PPTase inh
O=C(Cc1ccccc1)NCCc1cnc[nH]1	0%	6%	-5	nt	0.5	-18	12%
CCOc1ncccc1C(=O)Nc1ccc(S(=O)(=O)NC2=NCCCCC2)cc1	23%[15.4 µM]	16%	-5	nt	1.8	21	2%
COc1ccc(CN2CCN(C3CCC3)CC2CCO)c(C)c1C (stereo not given)	1%[15.4 µM]	-12%	?	-0.5%	-5.5	-11	22%

Screening data from PubChem.
